Ba CapD inh – CapD enzyme inhibition; z-score (test concentration not listed); actives 0.23% (n = 140,000); purified CapD enzyme, fluorescence intensity read-out; stronger effect = lower value; some hits fall short of the stated cut; AID 492967;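 active = z-score under -4 in either of two replicates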;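 also: stock transfer was 100 nL into about 40 µL; score is relative to mean and spread of the plate; one replicate is shown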
AID504770 – E. coli YBA685 growth inhibition, screen for V. cholerae RctB inhibitors | E. coli YBA685 rctB-dependent plasmid, OD600 growth, 3 h; stronger effect = lower value | z-score (concentration not given with the values) | actives 0.27% (n = 130,000);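 active = z-score under -2 on both plates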;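 also: wells of about 30 µL received 100 nL stock; score is relative to mean and SD of the test wells; the first replicate is given; strong numbers were not always called active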
Numbers without * were called inactive; / = no result given; & = joins results of further samples.

smiles,Ba CapD inh,AID504770
O=S(=O)(c1cc(Br)c(Cl)s1)N1CCN(CCCC(c2ccc(F)cc2)c2ccc(F)cc2)CC1,-1,/
COC(=O)c1ccc(C2C=C(c3ccccc3)Nc3nc4ccccc4n32)cc1 (stereo not given),0.33,/
Cc1cc(N2CCOCC2)nc2ccccc12,84,-0.05
O=C(COc1ccccc1)N1CCN(C(=O)COc2ccccc2)CC1,0.45,0.55
COc1ccc(Cl)cc1NC(=O)CSc1nc2ccccc2[nH]1,-0.51,/
O=C(NCc1ccc(F)cc1)c1ccncc1,0.39,-0.95
CC1CCCC(C)N1S(=O)(=O)c1ccc(NC(=O)CCn2cnc3ccccc3c2=O)cc1 (stereo not given),-0.25,0.1
O=C(NCc1ccco1)Nc1ccccc1,/,-1
Cc1noc(C)c1C(=O)NCC(c1ccccc1Cl)c1c[nH]c2ccccc12 (stereo not given),/,0.1
O=S(=O)(c1ccccc1Oc1ccc(Cl)cc1Cl)N1CCSCC1,-0.045,0.55

More records follow.
smiles,Ba CapD inh,AID504770
CCOc1cc(C2C(C(=O)OC3CCCCC3)=C(C)NC3=C2C(=O)CC(C)(C)C3)ccc1OC(C)=O (stereo not given),17,/
Cc1ccc(N=C2CCCN2Cc2ccccc2)c(C#N)c1,/,2.4
COc1ccc2c(-c3ccccc3)cc(=O)[nH]c2c1,4.3,-0.55
CC1CCC(C(C)C)C(OC(=O)CN2CCCCC2)C1 (stereo not given),-0.04,1.2
CC(C)Nc1nc(Cl)nc(NC(C)(C)CO)n1,0.43,-0.25
CC(C)(CO)C(O)C(=O)NN (stereo not given),/,-0.2
N#CC1(C#N)[C@H](c2c(F)cccc2Cl)[C@@H](C(=O)c2ccc(F)cc2)N2c3ccccc3C=C[C@@H]21,5.4,/
CCOc1ccccc1-c1cc(C(=O)N/N=C(\C)c2ccco2)[nH]n1,/,-0.9
N#C/C(C(=S)NCc1ccccc1)=C1/NN=C2CCCCCN21,/,-0.2
O=C1c2cccnc2C(=O)N1c1ccc2c(c1)OCO2,/,-0.65

Following part:
smiles,Ba CapD inh,AID504770
CCCCCSc1ncccc1C(=O)O,0.66,/
CC(C)n1cc(C(=O)O)c(=O)c2ccccc21,-0.36,-0.8
CCCc1cc(=O)[nH]c2c1c(C)nn2-c1cccc(F)c1,1.9,2.2
OCc1ccccc1O,0.9,1.4
CNC(=S)N/N=C/c1cccc(Cl)c1,/,-0.5
COc1cc(C2Nc3cccc4cccc(c34)N2)cc(OC)c1OC,52&88,/
Cc1cc(C)nc(NS(=O)(=O)c2ccc(NC(=S)NC(=O)c3ccc(Cl)cc3Cl)cc2)n1,-0.99,/
COc1ccc(C2CC(c3cccs3)=NN2C(=O)CSc2nnc(CNC(=O)Cc3ccccc3)n2C)cc1 (stereo not given),7.9,/
CC(=O)NC(=O)c1cc2cc(Br)ccc2oc1=Nc1ccccc1F,-0.4,/
CN(c1ccc(C(=O)NCc2cccnc2)cc1)S(C)(=O)=O,/,-0.8

3 entries out of the list, arranged by molar mass, low to high.
smiles,Ba CapD inh,AID504770
O=C(NCc1ccco1)Nc1ccccc1,/,-1
O=C(NCc1ccc(F)cc1)c1ccncc1,0.39,-0.95
Cc1cc(C)nc(NS(=O)(=O)c2ccc(NC(=S)NC(=O)c3ccc(Cl)cc3Cl)cc2)n1,-0.99,/

Later entries
smiles,Ba CapD inh,AID504770
COc1cc(NC(=O)c2ccccc2)c(OC)cc1NCC(=O)Nc1ccc2c(c1)OCCO2,/,-0.6
COc1ccc(C(C2=C(O)CC(C)(C)CC2=O)C2C(=O)CC(C)(C)CC2=O)cc1OC (stereo not given),5.9,/
CSc1nnc(-c2ccc(Br)s2)n1C,-0.33,0.25
O=C(O)CN1C(=O)CC(c2ccccc2)Sc2ccccc21 (stereo not given),-0.76,0.7
C(=NCCCN1CCOCC1)c1ccc2c(c1)OCO2,0.83,-0.75
COc1ccc(/C=C(\C#N)C(=O)ONC2=NCCCCC2)cc1,/,-0.1
S=C1NC2=C(C(c3ccc(Br)cc3)N1)N1CCC2CC1 (stereo not given),-0.41,1.2
C=CCNC(=O)C1CC(=O)N(C2CCCCCC2)C1 (stereo not given),-0.96,1.3
O=C(Nc1ccc(-c2noc(-c3cccs3)n2)cc1)c1cccc(Cl)c1,0.34,/
O=C(c1ccc(S(=O)(=O)N2CCOCC2)cc1)N1CCC(CN2C(=O)c3cccc4cccc(c34)C2=O)CC1,3.8,/

Next results.
smiles,Ba CapD inh,AID504770
CCc1cc(Br)ccc1S(=O)(=O)NC(c1ccccc1)c1ccccn1 (stereo not given),-0.04,/
CCOc1cc(S(=O)(=O)N2CCC(c3nc4ccccc4s3)CC2)c(OCC)cc1S(=O)(=O)N1CCOCC1,/,0.1
COc1ccc(C2C(C#N)=C(C(C)(C)C)Nc3ncnn32)cc1 (stereo not given),0.07,-0.6
Cc1ccc(C(=O)OCc2ccco2)cc1,0.32,-0.2
Nc1ccccc1C(=O)NCc1ccccc1,/,0.2
Cc1cnc(NC(=O)c2ccc3c(c2)OCO3)s1,0.3,-0.5
CC(=O)Nc1sc2c(c1CN(C)C)CCCC2,/,-0.75
O=C(NC1CC1)c1ccccc1SCc1ccc(F)cc1,0.71,0.65
O=C(O)c1ccccc1C(=O)Nc1ccc(C(F)(F)F)cn1,1.2,2.1
O=c1c2ccccc2c(-c2ccc(Cl)cc2)nn1-c1ccccc1,1.2,/

The listing continues.
smiles,Ba CapD inh,AID504770
Cc1ccc(C)n1-c1ccc(C(=O)NN)s1,/,2
Cc1cc2oc(=O)cc(COC(=O)C3CC3)c2cc1Cl,/,-0.95
Clc1ccc(OCc2ccsc2Cn2cccc2)cc1,-0.97,-0.55
COc1ccc(/C(O)=C2\C(=O)C(=O)N(c3nnc(C)s3)C2c2ccccc2F)cc1 (stereo not given),-0.97,/
CN(C)c1nn(C(=S)Nc2cccc(C(F)(F)F)c2)cc1-c1ccccc1,-0.95,/
O=C(O)c1cccc(Oc2cccc(C(F)(F)F)c2)c1,/,-0.3
O=[N+]([O-])c1ccc(Oc2ccc(Br)cc2)c(Br)c1,-0.2,/
COc1ccc(N2CCN(Cc3ccc(C)o3)CC2)cc1,0.61,-0.75
CS(=O)(=O)N(CCc1ccccc1)CC(=O)N1CCCC1,/,0.15
COc1cc(CO)ccc1OCC(=O)N1c2ccccc2CC1C (stereo not given),/,0.15

The list continues:
smiles,Ba CapD inh,AID504770
COc1cc(/C=C/C(=O)OCc2cn3cc(Cl)ccc3n2)ccc1O,/,-0.45
COc1ccc(CNc2n[nH]c(=S)s2)cc1,0.43,0.4
CN(C)S(=O)(=O)Oc1ccc(C(=O)Nc2cccc(C(F)(F)F)c2)cc1,0.14,/
Cc1ccc(Cc2nn[nH]n2)cc1,-0.02,-0.05
CCCCn1c(C)nc2ccc(S(N)(=O)=O)cc21,0.12,0.25
CC1CCCCN1S(=O)(=O)c1ccc(CN2C(=O)c3cccnc3C2=O)cc1 (stereo not given),-1.1,0.1
C(/C=C/c1ccccc1)=N/N1CCN(c2ccccc2)CC1,0.27,0.15
CSc1ccc(C2C3CCCc4ccccc4C3=NN2CCO)cc1 (stereo not given),56,0
CC1(C)CC(=O)c2cnc(NCc3ccccc3)nc2C1,0.13,-0.5
CCCCNS(=O)(=O)c1ccc2[nH]c(=S)[nH]c2c1,/,-0.15

Further results follow:
smiles,Ba CapD inh,AID504770
COc1cccc(N=C2NNC(C)=C(C(=O)N(C)C)S2)c1,/,-0.75
Cc1ccnc(S/C=C/C(=O)c2ccccc2)n1,-1.5,1.7
N#Cc1cnc(SCCc2ccccc2)nc1N,/,-0.1
O=c1c(C=Nc2cccc(C(F)(F)F)c2)c(C(F)(F)F)[nH]n1-c1ccccc1,0.32,/
Cc1c2cnn(-c3ccccc3)c(=O)c2c(C)n1CCCC(=O)NC(C)C,-0.84,-0.95
CCCCn1c(SCC(=O)NCc2ccco2)nc2ccccc2c1=O,/,0
CCNCc1ccc(N(C)C)cc1,/,-0.25
CCOc1cc(/C=C2/NC(=O)N(c3ccccc3)C2=O)cc(Br)c1O,3.9,-0.15
O=C(O)c1ccc(N2N=C(C(F)(F)F)/C(=C/c3ccc(-c4ccc5c(c4)C(=O)NC5=O)o3)C2=O)cc1,-0.55,0.15
CC1CC(C)CN(C(=O)Cn2c(SCC(=O)N(C(C)C)C(C)C)nc3ccccc32)C1 (stereo not given),/,1.1

Continuation.
smiles,Ba CapD inh,AID504770
CC1=C(C(=O)N(C)C)C(c2ccccc2)NC(=S)N1 (stereo not given),-0.075,1.5
CCC1Cc2c(nc3c4c(nc(N5CCOCC5)c(C#N)c24)NC(C)=N3)O1 (stereo not given),/,-0.25
CSc1nn(-c2ccccc2)cc1C(=O)Oc1ccc(Cl)cc1,-0.28,1.4
C=CCSc1nc2ccccc2n1CN1CCCC(C(N)=O)C1 (stereo not given),/,-0.25
Fc1ccc(C2N(Cc3ccc(Cl)cc3)CCN2Cc2ccc(Cl)cc2)cc1,-0.18,/
Cc1ccc(NC(=O)C(NS(=O)(=O)c2ccc3nc(C)sc3c2)C(C)C)cc1 (stereo not given),2.8,-0.25
CNC(=O)c1ccc(OC(C)=O)cc1,-0.75,1.5
CN(C1=NS(=O)(=O)c2ccccc21)c1ccccc1,0.4,0.45
O=C(NC1CC1)c1ccc(CS(=O)c2ccccc2)o1 (stereo not given),8.8,0.85
Fc1cccc(Cl)c1Cn1nnc(N2CCCCC2)n1,0.65,/

Following part
smiles,Ba CapD inh,AID504770
O=C(Cc1n[nH]c(=O)c2ccccc12)N/N=C/c1ccncc1,0.1,-0.25
CC1=CC(C)(C)N(C(=O)CSc2nnc(-c3ccccc3)o2)c2ccccc21,-0.21,-0.1
O=C(/C=C/c1ccccc1)CC(O)(c1ccccc1)C(F)(F)F (stereo not given),-0.54,1.4
CNC(=S)Nn1cnc2ccccc21,/,0.25
COc1cc(OC)cc(N2CCN(C(=O)C(C)(C)Cc3cc(C)cc(C)c3C(=O)O)CC2)c1,-1.3,/
O=C1CC(n2nc(Nc3ccccc3)n(-c3ccccc3)c2=S)C2COC1O2 (stereo not given),0.46,-0.1
N#Cc1ccccc1COC(=O)c1nc(-c2ccccc2)n(-c2ccccc2)n1,/,-0.3
CCc1ccc2c(c1)C1CC(C)(NC(=S)N1)O2 (stereo not given),-1,-0.8
Cc1nn(-c2ccccc2)nc1C(=O)NCC1CC1,-0.38,-0.45
Cc1nnnn1CC(=O)Nc1ccccc1,0.95,0.35

Other entries:
smiles,Ba CapD inh,AID504770
Cc1cc(C)cc(OC(=O)CCN2C(=O)c3ccccc3C2=O)c1,-0.72,1.2
O=c1[nH]c(CN2CCCCC2)nc2ccccc12,-0.65,0.1&-0.6
CC1CC(=O)NN=C1c1cccs1 (stereo not given),-2.5,-0.75
O=C(O)CCCC(=O)N1CCN(C(c2ccccc2)c2ccccc2)CC1,0.1,-0.4
O=C(CSc1nc2c(sc3ccccc32)c(=O)n1-c1ccccc1)NCc1ccco1,5.1,-0.05
CCOc1ccc(-n2c(N)c(C(N)=O)sc2=S)cc1,-1.5,/
Cc1ccc(C)c(NC(=O)Cn2ncc3ccccc32)c1,-0.2,0.4
CN1C(=O)/C(=C2\SC(=S)N(C3CCS(=O)(=O)C3)C2=O)c2cc(Br)ccc21 (stereo not given),0.36,-0.25
O=c1c(S(=O)(=O)c2ccccc2)c(O)cc(-c2ccccc2)n1-c1ccccc1,1.4,-0.05
COc1ccc(-c2c(C#N)c(N)nc3sc(C(=O)Nc4ccc(Br)cc4)c(N)c23)cc1OC,-1.8,/

The listing continues.
smiles,Ba CapD inh,AID504770
COc1ccc(N2CCN(c3cc(=O)n4oc(C)cc4n3)CC2)cc1,/,-0.15
CSc1cc(-c2ccc(Cl)cc2)nc(-c2ccco2)c1,15,2.6
COc1ccc(/C=N/NC2=NS(=O)(=O)c3ccccc32)cc1,0.47,-0.8
O=C1CN=C(Nc2ccc(F)cc2)N1C1CCCC1,/,-0.25
CC(C)c1nc2ccc(Cl)cc2c2c1C(=O)N(NC(=O)c1ccnc(Cl)c1)C2=O,1.5,/
N#Cc1cccc(NC(=O)CSc2nc3cc(S(=O)(=O)N4CCCCC4)ccc3o2)c1,/,-0.05
COC(=O)c1ccc2c(c1)N(Cc1ccccc1F)C(=O)CS2=O (stereo not given),-0.045,0.45
Cc1ccccc1OCCCC(=O)Nc1nnc(C(C)C)s1,-0.075,/
Cc1nn(-c2ccccc2)c2c1-c1sc(C(=O)NC3CC3)cc1CC2,67,0.8
O=C(Nc1nc2ccccc2c2nc3ccccc3n12)c1ccccc1,0.36,/

Remaining list, next part.
smiles,Ba CapD inh,AID504770
CCOC(=O)c1cc(OC)ccc1C#N,-0.86,-0.8
O=C(Oc1ccc(F)cc1)c1ccccc1Cl,-0.08,/
O=C(NC1CCCC1)c1cc(-c2ccc(O)cc2)on1,-1.1,-0.75
Cc1nnc(NCCCO)[nH]c1=O,/,0.05
CC(NC(=O)CSc1nc2ccc(N=Cc3ccccc3O)cc2s1)c1ccccc1 (stereo not given),1.2,-0.1
CCC1(C(=O)OC)NC(c2ccc(OC)cc2)C2C(=O)N(C)C(=O)C21 (stereo not given),/,-0.45
CC(NC=O)c1nc2ccccc2n1C/C=C/c1ccccc1 (stereo not given),0.1,-0.35

An excerpt of these results, as labelled records:
smiles: CC(NC(=O)CSc1nc2ccc(N=Cc3ccccc3O)cc2s1)c1ccccc1 (stereo not given)
  Ba CapD inh = 1.2 | AID504770 = -0.1
smiles: Cc1nnc(NCCCO)[nH]c1=O
  Ba CapD inh = / | AID504770 = 0.05
smiles: CC(NC=O)c1nc2ccccc2n1C/C=C/c1ccccc1 (stereo not given)
  Ba CapD inh = 0.1 | AID504770 = -0.35
smiles: CCC1(C(=O)OC)NC(c2ccc(OC)cc2)C2C(=O)N(C)C(=O)C21 (stereo not given)
  Ba CapD inh = / | AID504770 = -0.45
